gsp ag = activates gsp, the McCune-Albright syndrome mutation. gsp mutant cells, cAMP HTRF, 30 min; control for the full effect not named in the record. 0.13% of 340,000 active. Potency, µM (series often up to 76.9 µM), for the others: top-dose activation (cAMP increase), usual class: activators. AID 624287; active = well fitted activation curve with a large enough effect; inconclusive = small, poorly fitted or top-dose-only effect, or another doubt; inactive = no such curve, though single readings can be large or run the other way; cell line not stated here;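 also: phosphodiesterase inhibitor Ro 20-1724 added with compounds to block cAMP breakdown; potency is read from the fitted curve at half-maximal effect; nearly all actives have a fitted effect of over 60% in size; about a fifth of the inactives were tested at one dose only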
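Cells in DMEM/10% FBS with G418 were pretreated with compounds in DMSO plus […] (300 uM stock) for 30 min at 37C. cAMP was measured by HTRF (cAMP-d2 plus anti-cAMP antibody-K) after 30 min at room temperature.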
D2 potentiator = human D2 receptor positive allosteric modulation; DiscoveRx D2 beta-arrestin cells, luminescence, 90 min; 100% = 57 uM dopamine signal; AID 624464; 0.23% of 360,000 active; P14416; potentiation, % (concentration not given with the values); active = potentiation of 50% or more; inconclusive = 30% to 50%; inactive = 30% or less;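 also: compound concentration not given in the record; tested on top of an EC20 dose of dopamine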
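PathHunter D2 cells, attached overnight at 37 deg C, received compound in DMSO plus dopamine at EC20 (50 nM final) for 90 min at 37 deg C. Beta-arrestin recruitment was read as luminescence after 1 h with detection reagent at ambient temperature.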
Sfp PPTase inh = blocks B. subtilis Sfp PPTase activity | Q9F4F7 | Biochemical Sfp PPTase activity, qHTS | Potency, µM, for the others: max response, negative = inhibition, usual class: inhibitors | 3.5% of 310,000 active | AID 1490; active = well fitted inhibition curve with a large enough effect; inconclusive = small, poorly fitted or top-dose-only effect, or another doubt; inactive = no such curve, though single readings can be large or run the other way;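 also: the enzyme is Sfp with the accession as filed and its product quenches rhodamine fluorescence; potency is read from the fitted curve at half-maximal effect; 0% = enzyme reaction without inhibitor and -100% = no enzyme wells; top concentration of the series not given in the record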
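Fluorescence-quenching assay: 15 nM Sfp-PPTase preincubated 15 min at room temperature with compound, then 5 uM rhodamine-CoA and 12.5 uM BHQ-2-labelled YbbR peptide added. Fluorescence (ex 525/em 598 nm) read at start and after 30 min; difference gives rate.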
gsp antag = gsp mutant antagonism; gsp-mutant cells, cAMP HTRF, 30 min; control for the full effect not named in the record; Potency, µM (highest dose often 76.9 µM), for the others: top-dose activity change, negative = inhibition, most hits filed as inhibitors; 0.4% of 340,000 active; AID 624288; active = falling curve of any shape with a large fitted effect; inconclusive = falling curve, mostly with a smaller effect; inactive = flat or rising curve; cell line not stated here;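 also: intracellular cAMP measured with PDE inhibitor Ro 20-1724 present during compound exposure; potency is read from the fitted curve at half-maximal effect; % is scaled to controls: 0 for no effect and ±100 for the full control effect; nearly all actives have a fitted effect of over 65% in size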
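Cells, 2000/well, grown 16–24 h in DMEM 10% FBS with 0.5 mg/ml G418, then compounds plus […] (300 uM addition stock), 30 min at 37C. cAMP read by HTRF (cAMP-d2 and anti-cAMP antibody-K in lysis buffer) after 30 min RT.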
Menin-MLL FL inh = menin-MLL binding inhibition, fluorescein peptide; AID 1766; 290,000 tested, under 10 active; Fluorescence polarization, fluorescein-MLL peptide displacement from menin; FP activity change, % at 61.4 µM; inconclusive = falling polarisation curve, or a change in total fluorescence; inactive = total fluorescence flat and polarisation flat or rising; no compound was filed as active; the % refers to the polarisation; negative = inhibition;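 also: % of control where 0% means no effect; inhibitors lower the polarisation; unlabelled MLL peptide was the positive control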
TRPV1 potentiator = enhances activation of the human vanilloid receptor TRPV1; TRPV1-expressing cells, Fluo-8 calcium influx, capsaicin EC20 potentiation; host cell line not named in the record; control for the full effect not named in the record; potentiation, % at 8.33 µM; Q8NER1; 0.02% of 320,000 active; active means potentiation above 80%; inconclusive means 30% to 80%; inactive means below 30%; also: 0% is about no effect
Target sequence (Q8NER1 whole entry, looked up): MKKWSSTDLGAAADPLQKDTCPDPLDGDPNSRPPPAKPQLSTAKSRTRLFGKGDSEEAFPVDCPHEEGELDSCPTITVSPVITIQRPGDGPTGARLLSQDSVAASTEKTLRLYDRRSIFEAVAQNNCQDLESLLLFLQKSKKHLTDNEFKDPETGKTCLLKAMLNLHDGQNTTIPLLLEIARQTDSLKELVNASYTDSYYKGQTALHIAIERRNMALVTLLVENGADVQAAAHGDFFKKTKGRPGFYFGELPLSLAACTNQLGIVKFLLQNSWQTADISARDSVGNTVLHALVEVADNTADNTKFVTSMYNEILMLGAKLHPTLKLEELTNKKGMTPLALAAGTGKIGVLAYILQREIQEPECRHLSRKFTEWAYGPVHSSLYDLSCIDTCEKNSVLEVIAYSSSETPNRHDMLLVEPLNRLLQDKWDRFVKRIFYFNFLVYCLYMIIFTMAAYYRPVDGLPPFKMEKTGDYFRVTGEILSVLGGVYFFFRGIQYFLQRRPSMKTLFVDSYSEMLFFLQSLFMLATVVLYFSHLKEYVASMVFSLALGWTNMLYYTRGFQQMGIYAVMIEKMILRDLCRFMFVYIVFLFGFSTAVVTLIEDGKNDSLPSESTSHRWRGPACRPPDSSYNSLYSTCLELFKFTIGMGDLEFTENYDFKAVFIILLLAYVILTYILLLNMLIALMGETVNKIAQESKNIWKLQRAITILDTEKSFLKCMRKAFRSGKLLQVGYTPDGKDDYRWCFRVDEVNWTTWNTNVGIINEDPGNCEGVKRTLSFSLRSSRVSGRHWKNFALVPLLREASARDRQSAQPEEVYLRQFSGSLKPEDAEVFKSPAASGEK
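TRPV1-expressing cells were cultured overnight at 35.5C and loaded with Fluo-8 calcium dye for 40 to 90 min at room temperature. After a 10 s baseline, compound was added and calcium influx was read kinetically for 3 min (ex 480/em 520 nm).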
ClpP mod = qHTS Assay for Activators of ClpP. purified B. subtilis ClpP, FRET peptide cleavage, 20 min. Potency, µM (highest dose often 57.5 µM), for the others: at the top dose activity change, negative = active. 1.9% of 340,000 active. ATP-dependent Clp protease proteolytic subunit (Bacillus subtilis (strain 168)), P80244; active = well fitted falling curve with a large enough effect; inconclusive = small, poorly fitted or top-dose-only effect; inactive = no such curve, though single readings can be large or run the other way; also: potency is read from the fitted curve at half-maximal effect; the source files actives as falling curves though it sought activators and does not explain the sign; nearly all actives have a fitted effect of over 65% in size; many hits overshoot -100%
Target sequence (P80244 whole entry, looked up): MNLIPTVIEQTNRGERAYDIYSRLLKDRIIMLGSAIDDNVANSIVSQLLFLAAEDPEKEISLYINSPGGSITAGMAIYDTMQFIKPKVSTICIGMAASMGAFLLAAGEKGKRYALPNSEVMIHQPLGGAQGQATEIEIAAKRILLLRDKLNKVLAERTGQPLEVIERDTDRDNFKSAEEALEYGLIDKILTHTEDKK
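Purified B. subtilis ClpP, 10 microg/mL final in Tris/HCl pH8 with KCl, BSA, glycerol and Tween-20, cleaved an Abz/nitrotyrosine-quenched decapeptide. Fluorescence (ex 320, em 430) was read at 0 and 20 min at room temperature. Delta was normalized to 5.8 microM ADEP and DMSO/no-enzyme controls.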
* marks the source's active call; other numbers are inactive results; ? = inconclusive; . = not tested or not shown; [ ] = remark or other dose.

structure	gsp ag	D2 potentiator	Sfp PPTase inh	gsp antag	Menin-MLL FL inh	TRPV1 potentiator	ClpP mod
COc1cccc(OCCNc2ccc([N+](=O)[O-])cn2)c1	5%	-5	.	4%	.	-9	-0.8%
O=c1c2ccccc2ncn1CCOc1ccccc1[N+](=O)[O-]	16%	14	10%	5%	-0.1	6	0.4%
CC(=O)C1=C(O)C(=O)N(CCNCCO)C1c1ccccc1 (stereo not given)	-9%[15.4 µM]	-3	3%	6%	-2.6	20	-12%
Cc1cccc(C)c1NC(=O)CSc1nc(COc2ccccc2)nc2ccccc12	?	-3	-13%	-1%	4.7	-14	1.5%
O=[N+]([O-])c1ccc(S(=O)(=O)Nc2nnc(C(F)(F)F)s2)cc1	4%	-3	14%	-8%	-0.6	12	1.6%
C#CCOC(=O)CCC(=O)NCCc1ccccc1	-26%	10	9%	2%	-0.9	-19	1.8%
O=C1CC(NS(=O)(=O)c2cccs2)CN1c1cccc(F)c1 (stereo not given)	-11%[15.4 µM]	0	.	-5%	.	9	.
CCn1c(NC(C)=O)c(-c2ccccc2Cl)c(=O)c2ccccc21	26%	-8	9%	-17%	2.0	-5	-15%
Cc1ccc2cc(CN(Cc3ccco3)C(=O)c3ccco3)c3nnnn3c2c1	-89%[inhibitor]	-11	2%	?	5.6	13	-2.9%
CCn1ccnc1CN(C)C(=O)C1CCC(=O)N(CCc2cccc(F)c2)C1 (stereo not given)	-7%	12	3%	5%	.	-10	-1.0%
Cc1cc2nc(NC3=NCN(Cc4ccc5c(c4)OCO5)CN3)nc(C)c2cc1C	.	.	-3%	.	5.0	7	.
O=C(O)CC1=C(O)C(=O)N(c2ccccc2)C1c1ccc(Br)cc1 (stereo not given)	-25%	19	9%	-5%	0.6	4	-3.2%
Cc1ccc(C)c(S(=O)(=O)Nc2ccc(C(=O)NCCCN(C)C)cc2)c1	-1%	-9	.	.	.	.	-1.9%
O=C(NC(=S)Nc1cccc(Cl)c1N1CCOCC1)c1cccs1	-13%	-7	8%	-15%	-2.4	12	0.2%
O=C(NCC1CCCO1)c1sc(=S)n2c1[nH]c(=O)c1ccc(C(=O)N3CCCCC3)cc12 (stereo not given)	27%	-9	-9%	?	8.4	9	0.1%
Cc1cc(=O)oc2cc(OCc3nnc(-c4ccccc4Br)o3)ccc12	3%	-19	-14%	1%	2.1	-1	28µM*
CC(C)OC(=O)NCCOC(=O)Nc1cccc(Cl)c1	16%	-24	10%	?	3.4	-27	0.5%
O=C(NC1=NCCS1)[C@H](Cc1ccccc1)N1C(=O)c2ccccc2C1=O	9%	2	4%	8%	2.1	-1	-0.9%
O=C(CSc1n[nH]c(-c2ccccc2)n1)Nc1ncc(Br)cc1Br	-1%	-6	11%	-13%	5.3	10	1.1%
COc1ccccc1Nc1nc2nonc2nc1N1CCCCC1C (stereo not given)	?	0	-2%	?	0.1	-13	0.8%
CCOc1cc(NCCN2CCOCC2)c([N+](=O)[O-])cc1OCC	3%	-8	15%	-13%	0.2	-1	.
O=S(=O)([N-]c1nc2ccccc2nc1-[n+]1ccc(CCCc2ccccc2)cc1)c1cccs1	3%[15.4 µM]	-2	8%	-5%	?	6	.
O=C1CN(C(=O)COC(=O)/C=C/c2ccc(S(=O)(=O)N3CCOCC3)cc2)c2ccccc2N1	-53%[inhibitor]	8	-1%	-6%	2.4	1	-1.1%
COc1cccc(COC(=O)c2cc(S(=O)(=O)N3CCOCC3)ccc2Cl)c1OC	-39%[inhibitor]	5	.	?	.	.	2.0%
CCOC(=O)N1CCN(C(=O)COC(=O)CNC(=O)c2ccc(Cl)cc2Cl)CC1	?	15	.	0%	.	-3	-8.4%
CCc1ccc(OCC(=O)NN2Cc3ccccc3C2=N)cc1	?	-11	17%	5%	1.0	-5	-3.1%
COC1(c2cc(-c3ccccc3)nc(N)n2)CCCCC1	13%	0	-4%	?	-0.9	-29	?
O=C(/C=C/c1c(F)cccc1Cl)Nc1ncccn1	-2%	3	16%	12%	0.5	2	0.5%
COc1ccc(OCC(=O)N2CCN(c3nnc(-c4ccc(C)cc4)c4ccccc34)CC2)cc1	-3%[15.4 µM]	-5	-13%	28µM*	?	-8	-1.5%
COc1ccc(-c2ccc(CN3C(C)C(=O)N(Cc4cn(CCC5OCCCO5)nn4)CCS3(=O)=O)cc2)cc1 (stereo not given)	?	2	.	.	.	.	0.5%
CCOC(=O)C1=C(CCl)NC(=O)NC1c1ccc2c(c1)OCO2 (stereo not given)	-16%	-6	12%	9%	-1.6	11	.
Cc1cc(C)nc(-n2ncc(C#N)c2N)n1	8%	-9	5%	5%	-0.7	5	.
O=C(O)CCC(=O)Nc1ccc(Oc2ncnc3cc(Cl)ccc23)nc1	-11%	0	13%	-2%	2.2	0	.
NC(=O)c1ccc(N=Nc2c(O)c3ccccc3[nH]c2=O)cc1	.	.	-8%	.	?	12	.
NNC(=O)c1ccccc1-n1cccc1	12%	4	15%	-5%	-5.8	-4	.
COC(=O)C1=NN(C(C)(C)CC(C)=O)C2C(=O)N(C3CCCCC3)C(=O)C12 (stereo not given)	-16%	-5	23%	6%	5.3	5	-9.2%
COc1ccc(NC(=O)CCS(=O)(=O)c2cc3c(cc2Cl)NC(=O)CO3)cc1OC	?	-6	9%	12%	.	-16	-3.9%
CCCCC(CC)C(=O)Nc1ccccc1C(=O)NC(C)C (stereo not given)	-4%	-5	18%	9%	1.7	-15	-7.3%
C/C(=N\NC(=O)c1ccc(F)cc1)c1ccc(N2CCOCC2)cc1	-5%	-5	14%	-7%	-1.6	-6	.
O=C(NC1CC1)C1=COCCO1	1%	-5	0%	8%	2.8	6	-1.4%
CC(C)c1nnc(NC(=O)CCC(=O)Nc2ccc(Cl)cc2)s1	-6%	-37	14%	10%	.	28	-0.7%
O=C(c1ccc(NC(=O)C2(c3ccccc3)CCCC2)cc1)N1CCOCC1	-2%[15.4 µM]	-3	0%	-4%	0.6	-1	.
Cn1ccnc1Sc1cc(Cl)ccc1[N+](=O)[O-]	18%[15.4 µM]	-3	12%	-6%	-0.5	7	.
COn1c(=O)c(-c2ccccc2)[n+]([O-])c2ccccc21	-8%	-2	8%	-8%	-2.9	-4	.
O=C(Cc1cccc(C(F)(F)F)c1)Nc1ccc(S(=O)(=O)N2CCCC2)cc1	-3%	-9	.	6%	.	2	-2.5%
Cc1cc(C)c2c(N)c(C(=O)Nc3ccccc3Cl)sc2n1	4%[15.4 µM]	-4	.	-7%	.	.	0.0%
C=CCc1cccc2cc(C(=O)N3CCN(C(=O)OCC)CC3)c(=O)oc12	16%	3	4%	-16%	4.1	-15	-13%
c1ccc(CNC2=NCCCC2)cc1	-8%	7	-26%	-10%	-0.8	-3	-2.8%
CC1=C(C(=O)NCc2ccc3c(c2)OCO3)C2(CCC(C)CC2)OC1=O (stereo not given)	?	-3	14%	4%	4.8	8	-0.9%
CN(C)S(=O)(=O)c1cc(NC(=O)c2ccc(-n3ccnc3)c([N+](=O)[O-])c2)ccc1Cl	-14%[15.4 µM]	10	-24%	-17%	-5.5	0	.
CCCCC1CC(C)(C(=O)CSc2nc3ccccc3s2)OC1=O (stereo not given)	14%	-13	8%	-3%	-1.2	-34	-15%
O=c1ccc2c(o1)/C(=C/C=C(Cl)Cl)CCC2	-20%	-8	40µM*	-5%	?	-6	?
COc1cc(/C=C/C(=O)c2ccccc2O)cc(OC)c1OC	.	-56	-13%	1%	-0.3	15	-5.5%
O=C(CCC(=O)OCc1ccc(Cl)cc1)Nc1cccc([N+](=O)[O-])c1	-25%	-3	4%	-3%	-0.4	-20	-2.1%
Cc1nn(C)c(C)c1C1C(C#N)=C(N)OC2=C1C(=O)CC(C)(C)C2 (stereo not given)	7%[15.4 µM]	4	-4%	4%	-4.7	-5	-1.2%
Cc1nc(SCC(=O)c2ccc(F)cc2)c([N+](=O)[O-])[nH]1	11%	-16	3%	-16%	4.3	5	?
CN(C)CCNC(=O)c1onc(CSc2ccncc2)c1C(=O)NCCN(C)C	-9%	-10	.	8%	.	.	1.0%
O=C(O)CC1(CC(=O)NCc2ccccn2)CCCCC1	-3%	2	-3%	11%	-2.8	-4	-1.1%
CCN(CC)C(=O)c1cc2sc3ccccc3c2s1	12%	3	-1%	-14%	-1.1	-15	-1.5%
O=C(Nc1cccc(C(F)(F)F)c1)c1cccnc1	-15%	-21	6%	13%	-7.2	10	-0.4%

(more compounds)
structure	gsp ag	D2 potentiator	Sfp PPTase inh	gsp antag	Menin-MLL FL inh	TRPV1 potentiator	ClpP mod
CN1CCN(S(=O)(=O)c2cccc(C(=O)N(C)CC(=O)Nc3ccc(Cl)c(Cl)c3)c2)CC1	-11%	-5	.	-5%	.	.	-0.7%
O=C(c1ccco1)N1CCN(C(=O)c2ccc(CS(=O)c3ccc(Cl)cc3)o2)CC1 (stereo not given)	7%	-5	11%	-9%	.	5	-0.3%
CCCCOC(=O)N1CCOCCOCCOCCOCC1	-27%	-1	25%	7%	-1.0	-2	.
COc1ccc(COC[C@H](C)[C@H](O)[C@@H](C)[C@H]2OC(=O)[C@@H]2C)cc1	.	-36	8%	7%	-2.3	.	-1.8%
COc1ccc(O)c(C2NC(CC(C)C)(C(=O)O)C3C(=O)N(Cc4ccccc4)C(=O)C23)c1 (stereo not given)	-22%	-15	?	10%	3.4	14	-3.4%
O=C(N/N=C/c1ccc(N2CCCC2)c([N+](=O)[O-])c1)c1cccnc1	0%[15.4 µM]	-4	-3%	2%	-3.0	10	.
O=C(Cn1nnc(-c2cccs2)n1)NCc1ccccc1	-4%	3	9%	7%	-0.1	-4	2.1%
CCN(CC)S(=O)(=O)c1ccc(C(=O)Nc2nnc(-c3ccco3)o2)cc1	6%	-9	21%	-15%	2.5	-2	0.2%
O=C(Nc1ccccc1C(F)(F)F)NC1CCCCCCC1	2%	14	19%	0%	1.7	-4	-0.9%

Bioassay records (PubChem)
